Bioassay records deposited in PubChem by NMMLSC.
Bead autofluor: counter-screen for toxin protease inhibitors: compound fluorescence. compound autofluorescence counterscreen, microsphere flow cytometry; active compounds read high. fluorescence intensity (no concentration beside the values). actives 3.1% (n = 360,000);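 active = at least 3 SD above the mean of all compounds, about 16000 in these data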;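 note: 100 nL of 1 mM stock went into each well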
The depositor's hits bear a star. Only part of the results is shown; the hit share may differ from the screen's.

SMILES	Bead autofluor
CC(=O)Nc1cc(-c2cccc(NS(C)(=O)=O)c2)cn2c(-c3ccccc3)cnc12	3462
O=C(NCc1ccc(F)cc1)c1cc(C2CCCN(C(=O)c3cccs3)C2)on1 (centres undefined)	2953
Cc1ccc(CN2C(=O)C(C)Sc3ccc(C#N)cc32)cc1 (centres undefined)	3999
Cc1cc(Cl)ccc1C(O)c1ncc(-c2ccc(C(F)(F)F)cc2)[nH]1 (centres undefined)	4209
CCc1nc2c(OCC(N)=O)cccn2c1N(C)C(=O)c1cccs1	3171
CCOC(=O)CCC1(C(=O)OC)C(=O)CCCCCC=C1C(=O)OC (centres undefined)	3046
O=c1[nH]cc(CCCc2ccccc2)c(=O)[nH]1	3982
O=C(Nc1ccc2c(c1)OCO2)c1ccc2nc([C@@H]3O[C@H](CO)[C@H](O)[C@H](O)[C@H]3O)[nH]c2c1	3893
CCc1nc2ccc(C(=O)N3CCN(S(=O)(=O)CC)CC3)cn2c1N(C)C(=O)C1CCCCC1	4109
COc1ccc(OCCN2CCC(C(=O)NC(C)c3cccc4ccccc34)CC2)cc1 (centres undefined)	3889
C[C@H]1CN([C@@H](C)CO)C(=O)c2cc(C#CCC3CCCC3)cnc2O[C@@H]1CN(C)C(=O)CC1CC1	3651
CC(=O)c1cccc(-c2ccnc3c2CC(C(=O)Nc2ccc(Cl)cc2)O3)c1 (centres undefined)	3486
CCC(CO)Nc1ccn2nc(-c3cccs3)cc2n1 (centres undefined)	3609
COc1ccc(Br)cc1/C=N/NS(=O)(=O)c1ccccc1	3920
CC(=O)NC1CC2CCCC(C1)N2C(=O)Nc1c(C)cccc1C (centres undefined)	3904
Cc1ccc(Cc2c(C3CCCCC3)nc3c4ccccc4ccn23)cc1	7751
COc1ccc(N2CCN(c3cncc(C)n3)CC2)cc1	3527
COC(=O)c1ccc2nc(-c3ccc(C)cc3)c(Cc3ccc(OC)cc3C)n2c1	7150
O=c1[nH]cc(CCc2ccccc2)c(=O)[nH]1	4037
O=C(COC(=O)C1CCN(S(=O)(=O)c2ccc(Cl)c(C(F)(F)F)c2)CC1)NCC1CCCO1 (centres undefined)	3808
Nc1[nH]c(C(=O)c2ccccc2)c(-c2ccccc2Br)c1C(=O)NCc1ccc(-c2ccccc2)cc1	4296
O=C1/C(=C/c2ccc(S(=O)(=O)O)cc2S(=O)(=O)O)CCc2ccccc21	5693
C[C@@H]1CN([C@@H](C)CO)C(=O)CCCn2nncc2CO[C@H]1CN(C)Cc1ccncc1	3496
Cc1ccc(CNc2nc3cc(-c4ccccc4C)sc3c(=O)n2C)c(C)c1	2794
CCCCCCN1C[C@@H](O)[C@H](n2cc(COC(=O)c3ccccc3)nn2)C[C@@H]1c1ccccc1	3845
O=S1(=O)C=C[C@@H](CO)N1Cc1ccc(Br)cc1	5938
COc1ccccc1-c1noc2c1C(=O)N(Cc1cn(Cc3ccccc3)nn1)CC2	5830
OCc1ccc(-c2cncc3nccn23)cc1	3936
CC1(C(=O)Nc2ccccc2Cc2ccccc2)CCN1Cc1ccccc1Cl (centres undefined)	2870
O=C(Nc1ccccc1)c1cc(C2CCCN(C(=O)C3CC3)C2)on1 (centres undefined)	3719
Cc1ccc(-c2ccc(CN3C(C(C)C)C(=O)N(Cc4cn(CCC5OCCO5)nn4)CCS3(=O)=O)cc2)cc1 (centres undefined)	3489
O=[N+]([O-])c1ccccc1S(=O)c1ccccc1[N+](=O)[O-]	5359
OC(c1ccc(Cl)cc1)c1ncc(-c2ccccc2F)[nH]1 (centres undefined)	3601
CC(=NNC1=NCCN1)c1cn(C2=NCCN2)nc1C	4202
C=CCNc1nc2cc(-c3cccc(NC(C)=O)c3)sc2c(=O)n1C	4057
O=C(CN1C(=O)C2CC=CCC2C1=O)Nc1ccc(F)c(Cl)c1 (centres undefined)	3820
OC[C@@H](O)C(O)[C@@H](O)CO (some centres undefined)	5688
CC(C)C[C@H]1COc2cc(N(C)CCO)ccc2S(=O)(=O)N1	5765
Cc1ccc(S(=O)(=O)NC(=O)C2(C)CCN2C(=O)C2CCCCC2)nc1 (centres undefined)	2952
CC1(c2nnnn2-c2ccc3c(c2)OCCO3)CCC(=O)N1Cc1cccc(C(F)(F)F)c1 (centres undefined)	5403
CC1(C(=O)NCc2cccc3ccccc23)CCN1Cc1cccc2c1OCO2 (centres undefined)	3532
COc1ccccc1-c1n[nH]nc1C1=CC(=O)C[C@H](c2ccc(F)cc2)C1	3386
CN(C)CCN1CCN(C2CN(Cc3cn(Cc4ccc(Cl)cc4)nn3)S(=O)(=O)C2)CC1 (centres undefined)	6099
CN(C(=O)CN1CCN(c2cc(-c3cccc4oc5ccccc5c34)ncn2)CC1)c1ccccc1	3483
COc1ccc(Cc2c(-c3cccc(Cl)c3)nc3c(C)cc(Br)cn23)c(C)c1	4246
Cc1ccccc1Nc1nc(N)nc(COC(=O)c2ccc3c(c2)OCCO3)n1	3540
Cc1ccc(NC(=O)C(C)Sc2nnc3n2CCCCC3)cc1S(=O)(=O)N1CCOCC1 (centres undefined)	3960
Cc1cc2oc(=O)cc(CN(C)Cc3ccccc3)c2cc1C	5681
COc1cccc(NC(=O)C2(C)CCN2Cc2ccccc2OC(F)F)c1 (centres undefined)	3609
CC1=C(C(=O)N2CCOCC2)CC(CC(=O)NC2CCCCC2)C(=O)N1Cc1ccccc1 (centres undefined)	3166
COc1ncnc2c1ncn2CCCNCc1ccccn1	3690
CCNC(=O)c1cc2c(c(-c3cccc(-c4cccc(C(=O)N(C)C)c4)c3)n1)[C@@H](CCO)N(S(=O)C(C)(C)C)C2 (some centres undefined)	5663
C[C@@H]1COc2cc(N3CC[C@H](O)C3)ccc2S(=O)(=O)N1	4279
Cc1cc(Br)cn2c(Cc3cccc(Cl)c3)c(-c3ccco3)nc12	6354
Cc1ccc([C@@H]2CC(=O)[C@@H]3CN(S(=O)(=O)c4ccc(C)cc4)[C@H](c4ccc(Cl)cc4)C[C@@H]3N2S(=O)(=O)c2ccc(C)cc2)cc1	4302
COc1ccc(C(C)(O)c2nc(-c3cc(F)cc(F)c3)cs2)cc1 (centres undefined)	3816
COc1cc2ccc(C(C)=O)c(O)c2cc1OC	4005
CC1(C(=O)NS(=O)(=O)c2cccs2)CCN1C(=O)c1ccccc1CCc1ccccc1 (centres undefined)	3537
COc1ccc(S(=O)(=O)N2CCCCCC2)cc1NC(=O)CCNC(=O)c1ccc(Cl)cc1	3970
COc1ccccc1N1CCN(Cc2cc(=O)oc3cc(C)ccc23)CC1	4693

(cont.)
SMILES	Bead autofluor
c1ccc(CNn2nnc3ccccc32)cc1	6478
COc1ccc(CCCNC(=O)C2Cc3c(-c4ccccc4)ccnc3O2)cc1 (centres undefined)	3916
CCCCC[C@@H]1C=C(C(=O)OCC)[C@H](c2ccccc2)N1S(=O)(=O)c1ccc(C)cc1	6417
O=C(NCCN1CCC2(CC1)C(=O)NCN2c1cccc(F)c1)c1ccc2ccccc2c1	5741
Cc1ccc(-c2nc3ccc(Cl)cn3c2CC(C)(C)C)cc1	3193
c1csc(CNc2nc(Oc3ccncc3)c3sccc3n2)c1	3477
CCOC(=O)C1=C[C@@H](C(C)(C)C)N(S(=O)(=O)c2ccc(C)cc2)[C@H]1c1cccc(Cl)c1	6239
COc1c(C)cc(C(O)c2ncc(-c3cccc4ccccc34)[nH]2)cc1C (centres undefined)	3921
CCCc1nc2c3ccccc3ccn2c1Cc1ccccc1	4385
CCCNC(=O)c1cc(C2CCCN(C(=O)c3ccc(OC)cc3)C2)on1 (centres undefined)	3865
CC(C)c1ccc(C(=O)N2CCCCC2c2cc(C(=O)Nc3ccncc3)no2)cc1 (centres undefined)	3631
O=C(Nc1ccc(Cl)cc1)c1csc([C@@H]2O[C@H](CO)[C@@H](O)[C@H]2O)n1	3802
Cc1noc(C)c1CCC(=O)Nc1cc(Cl)ccc1C(=O)O	4156
Cc1cc2nc(-c3ccccc3)c(CC3CCCCC3)n2c(C)c1Br	5943
COCCCNC(=O)c1cccc2c(-c3ccc(O)c(OC)c3)coc12	3658
C[C@H](CO)N1C[C@H](C)[C@H](CN(C)C(=O)Oc2ccccc2)OCc2cnnn2CCCC1=O	3522
Cc1nc(NC(=O)C(C)(C)C)sc1-c1nc(N)sc1-n1cc(-c2ccccc2)nn1	5984
CC1(C(=O)NS(=O)(=O)c2ccccc2)CCN1C(=O)Cc1cccc2ccccc12 (centres undefined)	3823
COc1ccc(S(=O)(=O)NC(=O)C2(C)CCN2C(=O)C2CC2)cc1 (centres undefined)	3875
O=C(c1ccc(Br)cc1)N1CCN(c2ccccn2)CC1	3677
Cc1ccc(CNC(=O)Nc2nnc([C@@H]3C[C@H](O)[C@@H](CO)O3)s2)cc1	3284
CC(C)c1ccc(NC(=O)C2(C)Cc3c(-c4cccc(C(N)=O)c4)ccnc3O2)cc1 (centres undefined)	3812
COc1ccc(NC(=O)C2Cc3c(-c4ccccc4Oc4ccccc4)ccnc3O2)cc1 (centres undefined)	4156
O=C1CCCCCCC(=O)[C@H](O)C[C@H](c2ccccc2)O1	6059

Look-ups from the results shown:
COc1ccc(NC(=O)C2Cc3c(-c4ccccc4Oc4ccccc4)ccnc3O2)cc1 (centres undefined) in Bead autofluor → 4156
Cc1nc(NC(=O)C(C)(C)C)sc1-c1nc(N)sc1-n1cc(-c2ccccc2)nn1 in Bead autofluor → 5984
O=C1CCCCCCC(=O)[C@H](O)C[C@H](c2ccccc2)O1 in Bead autofluor → 6059
C[C@H](CO)N1C[C@H](C)[C@H](CN(C)C(=O)Oc2ccccc2)OCc2cnnn2CCCC1=O in Bead autofluor → 3522
Cc1noc(C)c1CCC(=O)Nc1cc(Cl)ccc1C(=O)O in Bead autofluor → 4156

Next section.
SMILES	Bead autofluor
O=C(c1cccnc1)N(Cc1ccccc1)C(c1ccccc1)c1nc2ccccc2[nH]1 (centres undefined)	5176
CCOC(=O)C1(C)CCN1C(=O)c1cccc(OC(F)(F)F)c1 (centres undefined)	4142
Cc1ccc(-c2nc3ccc(Cl)cn3c2Cc2cccc(F)c2)cc1	8165
CNc1cccc(-c2cc(OC)c(OC)c(OC)c2)n1	2962
COc1cccc(Nc2nc(C(N)C3CCCCC3)cs2)n1 (centres undefined)	3751
CCOC(=O)N1CCN(S(=O)(=O)N2CCCC(C(=O)NCc3ccc(C)cc3)C2)CC1 (centres undefined)	3030
Cc1cccc(S(=O)(=O)NC(=O)C2(C)CCN2C(=O)C/C=C/c2ccccc2)c1 (centres undefined)	3794
CC1(Cc2ccc(F)cc2)C(=O)Nc2ccc(-c3cccnc3)cc21 (centres undefined)	3308
CCCCN(C(=O)c1cc(S(=O)(=O)N2CCOCC2)ccc1N1CCOCC1)c1ccccc1	3211
CN(Cc1ccccc1)C(=O)c1ncn2c1C(=O)N(C)CC2	3542
CC(=O)Nc1ccc(S(=O)(=O)N2CCN(c3ccc(C(C)=O)cc3)CC2)cc1	3483
CC(C)CN1CCC1(C)C(=O)Nc1ccc(OC(F)F)cc1 (centres undefined)	3883
C=CCNc1ncnc2c1ncn2[C@H]1CN(Cc2ccc(-c3ccccc3)cc2)C[C@@H](CO)O1	3520
C[C@H](CO)N1C[C@H](C)[C@@H](CN(C)S(=O)(=O)c2ccc(-n3cccn3)cc2)OCc2cnnn2CCCC1=O	2850
COc1ccc(Cn2cc(CN3CC(N4CCCC4)CS3(=O)=O)nn2)cc1 (centres undefined)	5762
CCCCCCN1C[C@H](n2cc(-c3ccc(F)cc3)nn2)[C@@H](O)C[C@@H]1c1ccc(OC)cc1	3547
CC(=O)N(CCc1ccccc1)c1ccc2c(c1)C1CC2CCN1C(=O)OCc1ccccc1 (centres undefined)	3446
CCOC(=O)C1=CCN(S(=O)(=O)c2ccccc2Br)C1c1cccc(F)c1 (centres undefined)	5571
CCCS(=O)(=O)NC(=O)C1(C)CCCN(C(=O)c2cc(F)cc(F)c2)C1 (centres undefined)	3982
CCN(CC)CCC12CC(C)OC1=Nc1ccccc1NC2=O (centres undefined)	4694
CC1=C(C(=O)N(C)C)CC(CC(=O)NCc2cccs2)C(=O)N1Cc1ccc(F)cc1 (centres undefined)	7870
CN(C)CCNC(=O)c1cccc(-c2cnc3c(NC=O)cc(-c4ccc(S(C)(=O)=O)cc4)cn23)c1	3713
CCCCN1C(=O)C(CC(=O)NC(c2ccccc2)c2ccccc2)CC(C(=O)N2CCOCC2)=C1C (centres undefined)	3995
CCCNC(=O)C1(C)CCCN(Cc2ccc(C#N)cc2)C1 (centres undefined)	3684
CC(C)C[C@H]1CN([C@@H](CC(C)C)CN2CCC[C@H]2CN2C(=O)C(=O)NC[C@@H]2Cc2ccc(O)cc2)C(=O)C(=O)N1CCc1ccccc1	4277
COc1ccc(-c2cc3c(c4c2ccn4C)C2CCC3O2)cc1OC (centres undefined)	6255
O=C(Nc1cccc(Cl)c1)c1csc([C@H]2C[C@H](O)[C@@H](CO)O2)n1	2975
CC(=O)c1ccc(Nc2nc(C(N)COCc3ccccc3)cs2)cc1 (centres undefined)	3382
c1ccc(COc2cccc(-c3cc4nc(NCCOc5ccccc5)ccn4n3)c2)cc1	2892
O=C(OC1CC2CC1[C@H]1CCCCN1C2=O)N1CCN(c2ccccc2)CC1 (some centres undefined)	5767
CCCCCCCCN1C(=O)[C@H](CC(=O)NCCCN2CCCC2=O)C[C@@]2(C(=O)OCC)CCCC=C12	4043

A second format for seven compounds above.
| compound | Bead autofluor |
| --- | --- |
| Cc1ccc(CN2C(=O)C(C)Sc3ccc(C#N)cc32)cc1 (centres undefined) | 3999 |
| OC[C@@H](O)C(O)[C@@H](O)CO (some centres undefined) | 5688 |
| O=C(Nc1ccc2c(c1)OCO2)c1ccc2nc([C@@H]3O[C@H](CO)[C@H](O)[C@H](O)[C@H]3O)[nH]c2c1 | 3893 |
| CN(C)CCN1CCN(C2CN(Cc3cn(Cc4ccc(Cl)cc4)nn3)S(=O)(=O)C2)CC1 (centres undefined) | 6099 |
| CC(=O)c1ccc(Nc2nc(C(N)COCc3ccccc3)cs2)cc1 (centres undefined) | 3382 |
| CCCNC(=O)C1(C)CCCN(Cc2ccc(C#N)cc2)C1 (centres undefined) | 3684 |
| O=C(c1cccnc1)N(Cc1ccccc1)C(c1ccccc1)c1nc2ccccc2[nH]1 (centres undefined) | 5176 |
